High-throughput results as filed in PubChem.
VDR inh: blocks the human vitamin D receptor; 0.93% of 400,000 active; VDR-SRC2-3 peptide fluorescence polarization, 2 h; Potency, µM, without a hit: max response, negative = inhibition, usual class: inhibitors; P11473; active = well fitted inhibition curve with a large enough effect; inconclusive = small, poorly fitted or top-dose-only effect, or another doubt; inactive = no such curve, though single readings can be large or run the other way; also: series mostly up to about 120 µM
Target sequence (P11473 whole entry, looked up): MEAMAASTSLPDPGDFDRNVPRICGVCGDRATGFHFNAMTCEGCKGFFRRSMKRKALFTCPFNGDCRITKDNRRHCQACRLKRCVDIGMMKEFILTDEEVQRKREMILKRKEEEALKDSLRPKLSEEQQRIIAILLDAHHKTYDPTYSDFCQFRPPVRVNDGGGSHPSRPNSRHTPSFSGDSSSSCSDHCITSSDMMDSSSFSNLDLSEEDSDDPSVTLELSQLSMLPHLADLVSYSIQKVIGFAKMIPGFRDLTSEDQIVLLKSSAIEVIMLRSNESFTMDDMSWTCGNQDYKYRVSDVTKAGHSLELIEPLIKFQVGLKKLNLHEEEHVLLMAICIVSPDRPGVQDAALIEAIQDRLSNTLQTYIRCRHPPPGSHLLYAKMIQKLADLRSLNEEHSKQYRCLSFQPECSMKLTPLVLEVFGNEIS
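Fluorescence polarization assay measuring small-molecule disruption of VDR binding to the coregulator peptide SRC2-3. Compounds were pin-transferred (23 nl) into the reagent mix and incubated 2 h at room temperature before reading.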
Active calls of the source: *; ? = inconclusive; & = joins results of further samples. % is scaled to controls: 0 for no effect and ±100 for the full control effect; potency is read from the fitted curve at half-maximal effect. An excerpt. The share of hits here may be higher or lower than overall.

VDR inh	canonical_smiles
0%	O=C(NC1CCCN(Cc2ccccc2F)C1)c1cccc(N2CCCC2=O)c1 (stereo unspecified)
?	CC(CC1C(C#N)=C(N)SC(N)=C1C#N)c1ccccc1 (stereo unspecified)
13%	O=C(CCc1ccccc1)NNC(=O)c1cccc(F)c1
?	Cc1nc2ccc(C(=O)Nc3ccc(N(C)C)cc3)cc2s1
4%	Cc1cc(C)nc(NS(=O)(=O)c2cccs2)c1
19%	CCOc1cc(/C=C2/NC(=O)NC2=O)cc([N+](=O)[O-])c1O
3%	COC(=O)c1ccc(NC(=O)CSc2ccc(-c3sc(-c4ccccc4)nc3C)nn2)cc1
5%	CCN(CC)c1ccc(C(=O)Nn2c(C)nc3ccccc3c2=O)cc1
8%	CCN(CC)CCNC(=O)c1ccc(NS(C)(=O)=O)cc1
-1%	Cn1ncc(Cl)c1C(=O)Nc1sc2c(c1C(N)=O)CCC2
-8%	CSc1ccccc1NC(=O)c1ccccc1N(Cc1ccccc1)S(C)(=O)=O
10%	Cc1ccc(NC(=O)Nc2cnccn2)cc1Cl
-4%	CCCCOCCCNC(=O)c1ccccc1OCC
-17%	Cc1cc(=O)oc2ccc(OC(=O)CN3C(=O)c4cccc([N+](=O)[O-])c4C3=O)cc12
5%	Cc1nc(NC(=O)CN(C)S(=O)(=O)c2ccc(Br)cc2)sc1C
-11%	CCC(C)[C@H](NC(=O)C1CCN(C(=O)[C@H](Cc2ccccc2)NS(=O)(=O)c2ccc(C)cc2)CC1)C(=O)O (stereo partly specified)
-28%	Cc1cc2ccccc2n1CCNC(=O)C(C)Oc1ccccc1 (stereo unspecified)
5%	COc1cc(/C=N/n2cc(-c3ccccc3)[nH]c2=S)cc(OC)c1O
-6%	COc1ccc2c(c1)CC/C(=C\c1ccc(OC)c(Cn3cccn3)c1)C2=O
3%	COc1ccc(C(=O)N2CCCN(C)CC2)c(OC)c1

3 entries from above, sorted by their value in VDR inh, ascending.
Molecule	VDR inh
Cc1cc(=O)oc2ccc(OC(=O)CN3C(=O)c4cccc([N+](=O)[O-])c4C3=O)cc12	-17%
CCC(C)[C@H](NC(=O)C1CCN(C(=O)[C@H](Cc2ccccc2)NS(=O)(=O)c2ccc(C)cc2)CC1)C(=O)O (stereo partly specified)	-11%
COc1ccc(C(=O)N2CCCN(C)CC2)c(OC)c1	3%

The listing picks up with the five entries that preceded the break.
VDR inh	canonical_smiles
-11%	CCC(C)[C@H](NC(=O)C1CCN(C(=O)[C@H](Cc2ccccc2)NS(=O)(=O)c2ccc(C)cc2)CC1)C(=O)O (stereo partly specified)
-28%	Cc1cc2ccccc2n1CCNC(=O)C(C)Oc1ccccc1 (stereo unspecified)
5%	COc1cc(/C=N/n2cc(-c3ccccc3)[nH]c2=S)cc(OC)c1O
-6%	COc1ccc2c(c1)CC/C(=C\c1ccc(OC)c(Cn3cccn3)c1)C2=O
3%	COc1ccc(C(=O)N2CCCN(C)CC2)c(OC)c1
19%	NC(=O)c1ccc(NC(=O)C#Cc2ccccc2)cc1
?	CCN(CC(=O)Nc1ccc(OC)cc1)CC(=O)Nc1ccc2c(c1)OCO2
13%	Cc1cccc(N2C(=O)C(CC(=O)Nc3ccc(Cl)cc3)N(Cc3ccco3)C2=O)c1 (stereo unspecified)
4%	CC(C)CC(=O)NCc1nc2cccnc2n1Cc1ccccc1
13%	COc1cccc(CN2C(=O)N(c3ccc(C)cc3)C(=O)C2CC(=O)Nc2cc(OC)cc(OC)c2)c1 (stereo unspecified)
-6%	COc1cc(C(=O)NC2=C(C#N)CCC2)cc(OC)c1OC
-9%	O=C(CCNC(=O)c1ccc(Br)cc1)Nc1nccs1
-3%	CCOC(=O)C1CCCN(C(=O)COc2ccccc2F)C1 (stereo unspecified)
12%	O=c1c(-c2cccc(F)c2)nc2cncnc2n1Cc1ccccc1Cl
-16%	COc1ccccc1CNC(=O)COC(=O)C1=COCCO1
-7%	FC(F)(F)c1ccnc(NCc2ccco2)n1
-1%	CCCCOc1ccc(C(=O)Nc2ccc3c(c2)CCCN3S(=O)(=O)c2ccc(C)cc2)cc1
10%	Cc1ccc(CNC(=O)[C@@H](NC(=O)Cc2ccccc2)C(C)C)cc1
6%	Cc1ccn2c(CNCC3OCCc4ccccc43)c(C(=O)N3CCCCCC3)nc2c1 (stereo unspecified)
5%	NC(=O)C1C(c2ccccc2)=C1c1ccccc1
-15%	Cc1ccccc1OCC(=O)OCC(=O)NCCNC(=O)COC(=O)COc1ccccc1C
-13%	Cc1ccc(/C=N/NC(=O)c2ccc(OC3CCCC3)cc2)o1
4%&-6%	COC(=O)C1=C(C)NC(C)=C(C(=O)OC(C)(C)CN(C)CCC(c2ccccc2)c2ccccc2)C1c1cccc([N+](=O)[O-])c1 (stereo unspecified)
-13%	CCNC(=S)Nc1cc(-c2ccc(Cl)cc2)[nH]n1
-21%	CCSC1=NCCN1C(=O)C(C)(C)Oc1ccc(Cl)cc1

A draw from above in order of length of the SMILES, smallest number first:
VDR inh	canonical_smiles
-7%	FC(F)(F)c1ccnc(NCc2ccco2)n1
-13%	CCNC(=S)Nc1cc(-c2ccc(Cl)cc2)[nH]n1
-21%	CCSC1=NCCN1C(=O)C(C)(C)Oc1ccc(Cl)cc1
-13%	Cc1ccc(/C=N/NC(=O)c2ccc(OC3CCCC3)cc2)o1
10%	Cc1ccc(CNC(=O)[C@@H](NC(=O)Cc2ccccc2)C(C)C)cc1
-15%	Cc1ccccc1OCC(=O)OCC(=O)NCCNC(=O)COC(=O)COc1ccccc1C
-1%	CCCCOc1ccc(C(=O)Nc2ccc3c(c2)CCCN3S(=O)(=O)c2ccc(C)cc2)cc1

Following part.
VDR inh	canonical_smiles
-2%	COc1ccccc1CC(=O)NCCCc1ccccc1
-4%	Clc1ccc2c(c1)-c1nnc(Br)n1-c1ccccc1S2
?	COCCNC(=S)N/N=C/c1ccc(-c2ccc([N+](=O)[O-])cc2)o1
4%	Cc1ccc(/C=C/C(=O)NC(=S)N2CCN(c3ccc(F)cc3)CC2)cc1
4%	Cc1ccc(NC(=O)c2c3c(nc4ccccc24)CCC3)cc1
-8%	CCn1nc(NC(C)=O)c2cc3ccc(C)cc3nc21
?	CC1CN(CC(O)COc2ccc(C(=O)c3ccccc3)cc2)CC(C)O1 (stereo unspecified)
-8%	CCN(CC)S(=O)(=O)c1ccc(N2CCCCC2)c(NC(=O)/C=C/c2ccc(OC)c(OC)c2)c1
-7%	O=c1c2ccccc2c(/C=N/n2cnnc2)c(O)n1-c1ccccc1
-18%	O=C(N/N=C/c1ccccn1)c1cccc(NC(=O)c2ccccc2Cl)c1
6%	O=C(O)C1CCN(C(=O)COc2ccc3c4c(c(=O)oc3c2)CCCC4)CC1
-1%	CCOC(=O)CCS(=O)(=O)c1ccc(-c2ccc(S(=O)(=O)CCC(=O)OCC)cc2)cc1
-5%	CCCn1c(C(O)c2ccc(OCC)cc2)nc2ccccc21 (stereo unspecified)
-3%	CC(=O)Nc1ccc(NC(=O)C2CCCN2/C=C/C(=O)C(F)(F)F)cc1 (stereo unspecified)
-12%	CCCC[C@H]1COCCS(=O)(=O)N1Cc1cccc([N+](=O)[O-])c1
8%	Nc1ccc(S(=O)(=O)Nc2cnc3c(Cl)cccc3n2)cc1
19%	COc1ccc(C(CNC(=O)c2cccc(S(=O)(=O)Nc3ccc(F)cc3)c2)N2CCCCC2)cc1 (stereo unspecified)
9%	NNc1nc2sc3c(c2c(=O)n1C1CCCCC1)CCN(Cc1ccccc1)C3
11%	CC(=O)c1cccc(NC(=O)C2CCN(S(=O)(=O)c3ccc4[nH]c(=O)ccc4c3)CC2)c1
0%	CC1=CC(=O)C=C(C)C1=NOS(=O)(=O)c1ccccc1
-23%	COc1ccc(N2CCN(Cc3cc(=O)c(OCC(=O)NC4CCCC4)co3)CC2)cc1
-18%	Cc1ccc(C)c(Nc2nc(NCc3ccco3)nc3nccnc23)c1
16%	C=CCc1ccc(OCC(O)CN2CCc3ccccc3C2)c(OC)c1 (stereo unspecified)
-11%	O=C(C1CCCCC1)N(Cc1nc2sc3c(c2c(=O)[nH]1)CCCC3)Cc1cccs1
9%	Cn1nc(C(=O)NCc2cccc(Cl)c2)c2c1-c1ccccc1SC2
-1%	CC(C)(C)OC(=O)N1CCC(c2c(C(=O)NC3CC3)cnn2-c2ccccc2)CC1
-2%	COC(=O)CNC(=O)C(NC(=O)c1ccc(Cl)cc1)C(C)C (stereo unspecified)
22%	CCn1c(-c2cc3ccccc3cc2O)n[nH]c1=S
-7%	Cc1cc(N2CCN(c3ncccn3)CC2)nc2c(C)cccc12
-9%	O=c1[nH]cnc2nn(-c3ccccc3)nc12
13%	Cc1ccc(Cl)cc1N1CCN(Cc2nnnn2C2CCCCC2)CC1
1%	O=S(=O)(c1ccccc1)c1nc(-c2ccc(Cl)cc2Cl)oc1N1CCCCC1
-8%	O=C(Nc1cc(C(=O)Nc2ccc(S(=O)(=O)O)cc2S(=O)(=O)O)cc(C(=O)Nc2ccc(S(=O)(=O)O)cc2S(=O)(=O)O)c1)Nc1cc(C(=O)Nc2ccc(S(=O)(=O)O)cc2S(=O)(=O)O)cc(C(=O)Nc2ccc(S(=O)(=O)O)cc2S(=O)(=O)O)c1
?	COc1ccc(NC(=O)C2CCCN2C(=O)NC2CCCCC2)cc1 (stereo unspecified)
-17%	CC(C)(C)OC(=O)N1CCC[C@H]1c1nnc(SCc2ccccc2)o1
-8%	O=C(CSc1nnc2ccccn12)NCc1ccco1
4%	O=c1oc2cc(O)ccc2cc1-c1nnc(Nc2ccccc2F)s1
-3%	COc1ccc(Cn2ccnc2SCC(=O)Nc2ccccc2F)cc1
-4%	O=C(Cn1ccc2ccccc2c1=O)NCCC(=O)N1CCN(c2cccc(Cl)c2)CC1
-3%	O=C(Nc1c(Cl)cc2c(c1Cl)Cc1cc([N+](=O)[O-])ccc1-2)C(Cl)Cl
4%	COC(=O)c1ccccc1NC(=O)c1ccc2nc(Cc3ccccc3)oc2c1
-1%	COc1ccc(CCNC(=O)C(=O)NCC2OCCN2C(=O)c2ccc(Cl)cc2)cc1OC (stereo unspecified)
-18%	Cn1cc(Br)c(C(=O)NNC(=O)c2ccc(Br)cc2)n1
4%	Cc1ccccc1NS(=O)(=O)c1ccc2[nH]c3c(c2c1)CCCCC3
?	CC[C@H](C(=O)[C@H](C)[C@H](O)[C@H](C)CCc1ccc(C)c(O)c1C(=O)O)[C@H]1O[C@](CC)([C@@H]2CC[C@@](O)(CC)[C@H](C)O2)C[C@H]1C
-28%	Cc1nc2nc(SCC(=O)c3ccc([N+](=O)[O-])cc3)[nH]c2cc1Br
0%	COc1ccc(-c2nn(C)c3sc(C(=O)N4CCN(c5ccccc5F)CC4)cc23)cc1OC
-19%	CCC1=C(c2ccc(C)cc2)S(=O)(=O)N=C1N1CCC(C(=O)NCc2ccc(C)cc2)CC1
12%	Cc1ccc2cc(C#N)c(N3CCCN(S(=O)(=O)c4ccccc4)CC3)nc2c1C
-23%	O=C(CNC(=O)c1cccs1)Nc1ccc(N2CCOCC2)cc1

Next section:
VDR inh	canonical_smiles
9%	CCC1Oc2ccc(C)cc2N(CC(=O)NCCc2ccc(OC)c(OC)c2)C1=O (stereo unspecified)
-10%	COCC(=O)N1CCCN(c2nc3c(C)cccc3cc2C#N)CC1
-6%	CCc1ccc(CNC(=O)CCc2nc(-c3cccs3)no2)cc1
4%	CCN(c1ccccc1)S(=O)(=O)c1ccc(Cl)c(C(=O)NC2CCN(Cc3ccccc3)CC2)c1
4%	CN1C(=O)NC(c2ccccc2[N+](=O)[O-])C2=C1CCCC2=O (stereo unspecified)
14%&9%	CC(=O)c1cccc(NC(=O)CCS(=O)(=O)c2cc3c(cc2C)NC(=O)CO3)c1
